BJeLR viability = MLPCN primary cell-based screen for lethality selective to Ras in HRASV12 cells; AID 1554, 2009; BJeLR (HRASV12) viability, CellTiter-Glo ATP luminescence, 48 h; reference of the scale not given here; inhibition, % (test concentration not listed); actives 0.17% (n = 300,000);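 active = replicate mean above 50%; inconclusive = above 50% but judged a plate artefact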;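 also: 50 nL library stock added to about 25 µL; numbers are from one replicate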
Autofluor counter = flagged as autofluorescent in microsphere protease counterscreen | compound autofluorescence counterscreen, microsphere flow cytometry; active compounds read high | fluorescence intensity (no concentration beside the values) | actives 3.1% (n = 360,000) | AID 624483;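 active = at least 3 SD above the mean of all compounds, about 16000 in these data; inconclusive = too few beads counted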;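 also: 100 nL of 1 mM stock went into each well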
Mtb hypoxia inh = PubChem AID 1159583; fluorescence inhibition, % (concentration not given with the values); M. tuberculosis hypoxia-regulated fluorescent reporter, fluorescence; actives 0.1% (n = 300,000);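 active = 35 to 45% if threefold the growth effect, above 45% if 1.5-fold the growth effect; inactive = the rest, general growth blockers included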;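 also: wells of about 50 µL received 100 nL stock; 0% = vehicle wells and 100% = reference inhibitor wells; whole bacteria with a GFP reporter of the hypoxia response; strong numbers were not always called active; many hits fall short of the cut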
Sa ugtP lethal = growth inhibition of ugtP-null S. aureus, primary screen, RN4220 ugtP deletion, OD600; growth inhibition, % (no concentration beside the values); 16 h; some inactives read as strong as hits; actives 0.54% (n = 330,000);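 active = z-score under -3 and OD600 up to 0.15 on both plates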;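 also: plate controls were untreated wells for no effect and antibiotic for full effect; wells of about 80 µL received 100 nL stock; the first replicate is given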
RN4220 kill = growth inhibition of S. aureus RN4220, primary screen, OD600 | 16 h | inhibition, % (concentration not given with the values) | actives 0.33% (n = 330,000);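 active = z-score of -3 or lower and OD600 up to 0.18 on both plates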;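 also: plate controls were untreated cells for no effect and reference antibiotic for full effect; stock transfer was 100 nL into about 80 µL; one replicate is shown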
PrP UTR inh = inhibition of PrP 5' UTR reporter expression | cell-based PrP 5' UTR mRNA reporter, plate reader | inhibition, % (test concentration not listed) | actives 0.35% (n = 340,000);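 active = every replicate at 50% or more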;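 also: 0 = median of the neutral control wells; tested in H4 reporter cells; numbers are from one replicate; inactives centre near -14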
Mtb hypoxia inh growth = second read-out of Mtb hypoxia inh, no call of its own (marks repeat the call); growth inhibition, %; measured here: M. tuberculosis growth (absorbance);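 0% = vehicle and 100% = reference antibiotic; read after six days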
Starred values were filed as active, the others as inactive; ? = inconclusive; . = not tested or not shown. Compounds as they come; 4% or so of the library scored in one or more.

SMILES	BJeLR viability	Autofluor counter	Mtb hypoxia inh	Mtb hypoxia inh growth	Sa ugtP lethal	RN4220 kill	PrP UTR inh
Clc1ccccc1Nc1ncnc2c1nnn2Cc1ccccc1	1	16216*	12	4	5	-2.0	-7
C=CCc1ccccc1OCC(O)CN1C(=O)c2ccccc2C1=O (stereo not drawn)	-9	3977	9	4	4	2.0	-20
CCOc1ccc(C(C)=O)cc1CSc1nnc(N)s1	-4	4405	-7	2	4	4.8	-19
CC(CN1CCC(n2nccc2NC(=O)C2CCCC2)CC1)c1ccccc1 (stereo not drawn)	-5	6836	6	-3	-2	-1.8	-9
O=C(Cn1cncn1)NN=Cc1ccccc1O	.	.	16	9	4	4.9	.
Cc1ccc(SCC(=O)NNC(=O)c2ccc(S(C)(=O)=O)cc2)cc1	-16	3857	-6	5	1	1.6	-23
Clc1ccc(-c2nc3ncccn3c2Nc2ccc3c(c2)OCO3)cc1	8	9015	-74	-23	-1	0.9	-7
O=C(CN1CCN(c2ccccc2)CC1)Nc1nccs1	3	2824	.	.	1	-3.1	6
CCN1CC2C3C(=O)N(C)C(=O)C3[C@](CC)(C1=O)N2C(=O)c1ccc(C)cc1 (stereo partly drawn)	.	.	-6	3	-2	7.0	.
O=C(NCc1ccc(Cl)cc1)c1cc2c(nc3sccn32)s1	-3	6883	-2	9	-11	4.6	-2
Cc1ccc(OCc2nnc(SCC(=O)N3c4ccccc4Sc4ccc(Cl)cc43)o2)cc1	7	2542	6	6	19	3.6	-27
COc1ccc(N(CC(=O)NN=Cc2ccccc2F)S(=O)(=O)c2ccccc2)cc1	.	.	6	4	9	1.8	.
COc1cccc(C2C(C(=O)/C=C/c3ccco3)=C(O)C(=O)N2CCN2CCOCC2)c1 (stereo not drawn)	-2	4613	12	-3	5	0.3	-15
Cc1sc2nc3c(SC(C)C(=O)O)cc(C(=O)c4ccccc4O)cn3c(=O)c2c1C (stereo not drawn)	11	7271	0	-3	-5	20	-19
COc1ccc(NS(=O)(=O)c2ccc(OC)c(OC)c2)cc1OC	-7	4547	16	6	-4	2.1	-14
O=C(CSc1nc(-c2ccco2)cc(C(F)(F)F)n1)Nc1ccc2c(c1)OCO2	2	10111	15	4	7	0.2	-28
COCCNC(=O)CSc1nnc(-c2ccccc2F)n1Cc1ccccc1	-7	2053	6	5	3	5.5	-11
COc1cccc(-c2nnc(NC(=O)C3CCCCC3)o2)c1	-19	5777	2	1	11	7.0	-19
Nc1ncnc2c1ncn2C1CCC(CO)C(O)C1 (stereo not drawn)	7	7862	11	5	6	0.2	-39
O=c1oc2ccccc2c(O)c1Sc1ccc(Cl)cc1	-2	4305	3	-2	15	11	-72
CSc1ccc(/C=N/N2CCN(C)CC2)cc1	0	4181	.	.	.	.	-49
CCCN(CCC)CCCNC(=S)Nc1ccc2nc(N3CCN(C)CC3)cc(C)c2c1	14	4400	14	9	2	4.9	-12
Oc1ccc(C=NNc2cc(N3CCOCC3)nc(N3CCOCC3)n2)cc1O	.	.	-4	2	-8	4.1	.
Brc1ccccc1OCCCCn1cnc2ccccc21	-6	4411	8	5	19	8.7	-72
O=C(COC(=O)c1nc(Cl)ccc1Cl)Nc1ncc(Cl)cc1Cl	-2	?	-9	1	2	0.2	-1
CNC(=O)COC(=O)c1cc(NC(=O)c2ccco2)c(OC)c(OC)c1	-9	4102	15	7	4	1.5	-13
O=C(O)CSc1ncnc2nc[nH]c12	.	20292*	6	7	-3	4.0	-27
COc1cc(OC)c(NC(=O)C2CCCN2C(=O)OCc2ccccc2)cc1Cl (stereo not drawn)	-6	4924	6	5	21	6.8	-23
O=C(c1cc(COc2ccc3ncccc3c2)on1)N1CCCC1	4	.	-7	-8	1	4.1	-2
COc1ccc(OCCCON2C(=O)c3ccccc3C2=O)cc1	-7	3198	.	.	12	11	-10
O=C(c1cccc(C(F)(F)F)c1)C1CCCN(C(=O)C2CCOCC2)C1 (stereo not drawn)	2	.	-7	-9	12	5.9	-4
COc1ccccc1NS(=O)(=O)c1cc(C(=O)Nc2ccc(S(=O)(=O)Nc3onc(C)c3C)cc2)ccc1C	.	3795	13	19	5	11	-6
O=C(N/C(=C/c1ccccc1F)C(=O)N1CCCCC1)c1ccccc1	1	2958	9	5	10	4.5	13
CCCN(N=Nc1cccc([N+](=O)[O-])c1)c1cccc([N+](=O)[O-])c1	-9	8677	4	-3	8	4.2	-26
CCCOc1ccc(Cc2nc(N)nc(N)n2)cc1	5	9657	-2	-2	-5	5.8	-5
CCn1c(SCC(=O)Nc2ccc(OC)c(OC)c2)nnc1-c1c[nH]c2ccccc12	2	5648	2	8	-11	-20	-14
Cc1cccc(C(=O)NNC(=O)c2c(-c3ccccc3Cl)noc2C)c1O	3	3601	-1	5	13	16	-20
CCn1ccc(C(=O)N2CCN(c3ncccn3)CC2)n1	9	5798	8	17	4	2.8	-5
Nc1ccc(C(=O)Nc2cccc3ncccc23)cc1	10	3331	-1	5	4	4.0	-2
O=C(NCC(=O)N(Cc1ccco1)C(C(=O)NC1CCCCC1)c1cccnc1)c1cccs1 (stereo not drawn)	10	5804	.	.	-10	0.9	5
ONC=Nc1cccc2nonc12	5	4555	.	.	2	1.6	-6
Cc1ccc2c(C)c(C(=O)Nc3ccc(S(N)(=O)=O)cc3)oc2c1C	-2	3963	6	2	3	4.2	-3
O=C(Nc1ccon1)C(Sc1ccccc1)c1ccccc1 (stereo not drawn)	-7	23273*	7	9	5	7.3	-12
C#CCOCCOCCOCCNc1nc(N2CCN(C(=O)C(Cc3ccc(O)cc3)n3cc(C(N)CC(C)C)nn3)CC2)nc(N2CCN(C(=O)C(Cc3ccc(O)cc3)n3cc(C(N)C(C)CC)nn3)CC2)n1 (stereo not drawn)	6	3057	6	16	3	3.5	-14
COCCCNC(=S)NNC(=O)Cn1nc(C)c(Br)c1C	11	1945	5	3	4	4.4	-3
CCN(C(=O)COC(=O)c1ccc2[nH]c3c(c2c1)CCCC3)C1CCS(=O)(=O)C1 (stereo not drawn)	9	4540	9	10	8	0.2	-3
O=S(=O)([N-]c1nc2ccccc2nc1-n1cc[n+](Cc2ccccc2)c1)c1ccccc1	10	3275	0	-4	8	3.7	-31
CSc1cccc(NC(=O)CCC(=O)O)c1	8	6436	4	7	7	1.5	-11
CCn1c(CNC(=O)c2ccc(OC)cc2)nnc1SC	-2	5460	6	5	10	0.3	-9
COc1cc(CNc2ncc(-c3ccc(Cl)cc3)n2C)cc(OC)c1OC	1	3916	-12	-7	-5	1.9	-20
COc1cc(/C=N/NC(=O)CN2CCCCC2)ccc1OCc1ccccc1	-8	1972	.	.	.	.	-21
COc1ccc(S(=O)(=O)N2CCC(C(=O)NCc3ccncc3)CC2)cc1C	-8	3735	-2	-2	12	-1.6	-6
CCOc1cc(C2C(C(C)=O)=C(C)Nc3ncnn32)ccc1O (stereo not drawn)	4	3694	6	8	5	-0.7	-35
Cc1cccc(C)c1NC(=O)NC1(C(=O)NCc2ccncc2)CCCCC1	-5	2990	6	-3	16	3.2	-20
CC(=O)Nc1ccc(-c2cn3cc(C)ccc3n2)cc1	3	7540	8	6	-1	3.7	-71
NNC(=O)Nc1cccc(C(F)(F)F)c1	-7	3335	15	1	3	-5.4	0
O=C(Cn1c(=O)n(CC(=O)NCc2ccccc2)c2ccccc21)NCc1ccccc1	-1	2290	4	-1	13	20	-18
Cc1cccc2[nH]c3c(N4CCN(C(=O)c5ccco5)CC4)ncnc3c12	0	24618*	8	6	-9	0.3	-47
Cc1c(C(=O)OCC(=O)Nc2ccc(N3CCOCC3)cc2)oc2ccccc12	21	?	2	-7	5	1.2	-18
COCCn1c(CN2CCN(c3ccccc3)CC2)nc2c1c(=O)n(C)c(=O)n2C	1	3976	1	-1	-2	0.7	-24

Compound profiles, from the list above.
O=C(CN1CCN(c2ccccc2)CC1)Nc1nccs1 is entered as BJeLR viability = 3; Autofluor counter = 2824; Mtb hypoxia inh = .; Mtb hypoxia inh growth = .; Sa ugtP lethal = 1; RN4220 kill = -3.1; PrP UTR inh = 6
Brc1ccccc1OCCCCn1cnc2ccccc21 is entered as BJeLR viability = -6; Autofluor counter = 4411; Mtb hypoxia inh = 8; Mtb hypoxia inh growth = 5; Sa ugtP lethal = 19; RN4220 kill = 8.7; PrP UTR inh = -72

Next records
SMILES	BJeLR viability	Autofluor counter	Mtb hypoxia inh	Mtb hypoxia inh growth	Sa ugtP lethal	RN4220 kill	PrP UTR inh
O=C(N/N=C/c1ccncc1)c1ccc(NC(=O)c2cccc(Cl)c2)cc1	-6	4429	.	.	.	.	-19
FC(F)(F)c1ccccc1C=Nn1c(C2CCCCC2)n[nH]c1=S	.	.	-5	5	-12	2.1	.
O=C(/C=C/c1ccco1)Nc1nnc(-c2ccco2)s1	-1	3437	4	4	0	-0.2	-4
CCC(C)(C)NC(=O)C(c1ccncc1)N(Cc1ccc(C)cc1)C(=O)c1csnn1 (stereo not drawn)	-8	6393	8	7	4	4.1	-13
Cc1nc2ccc(NC(=O)CCS(=O)(=O)c3ccccc3)cc2s1	-4	2918	-4	-5	5	4.1	-21
COCn1c(-c2ccc(OC)cc2)nc2ccccc21	1	3825	.	.	5	5.1	-78
CN(C#N)c1nc(Cl)nc(Nc2cccc(Cl)c2)n1	-13	2148	.	.	.	.	-5
N/C(=N\OC(=O)CCC1CCCCC1)c1cccc([N+](=O)[O-])c1	-1	9490	.	.	.	.	-15
COc1ccc(CNC(=O)Nc2cccs2)cc1OC	-3	3226	13	5	0	-0.9	-1
CN1C(=CC(=O)c2cccnc2)Sc2ccccc21	.	.	2	-2	1	5.1	.
COc1ccc(-n2cnc(N)c2C(=O)c2cccc([N+](=O)[O-])c2)cc1	3	1954	0	-3	9	9.9	-9
COc1ccc(C(=O)Nc2ccc(C3=NNC(=O)CC3C)cc2NC(=O)c2ccc(OC)cc2)cc1 (stereo not drawn)	-9	4034	9	-1	7	8.4	-14
O=C(Nc1cccc2c1CCCC2)c1ccccc1Br	1	3513	8	-1	8	9.8	-24
Cc1c(Br)c([N+](=O)[O-])nn1CC(=O)NC1CCCCCC1	3	4541	-2	13	2	-3.6	-8
CN1CCN(NC(=O)c2ccc(Cl)c(S(=O)(=O)Nc3ccc(Cl)cc3)c2)CC1	3	3356	2	-5	5	-2.5	-17

7 compounds already listed, arranged by length of the SMILES, low to high.
SMILES	BJeLR viability	Autofluor counter	Mtb hypoxia inh	Mtb hypoxia inh growth	Sa ugtP lethal	RN4220 kill	PrP UTR inh
COc1ccc(CNC(=O)Nc2cccs2)cc1OC	-3	3226	13	5	0	-0.9	-1
CN1C(=CC(=O)c2cccnc2)Sc2ccccc21	.	.	2	-2	1	5.1	.
O=C(/C=C/c1ccco1)Nc1nnc(-c2ccco2)s1	-1	3437	4	4	0	-0.2	-4
Cc1nc2ccc(NC(=O)CCS(=O)(=O)c3ccccc3)cc2s1	-4	2918	-4	-5	5	4.1	-21
Cc1c(Br)c([N+](=O)[O-])nn1CC(=O)NC1CCCCCC1	3	4541	-2	13	2	-3.6	-8
N/C(=N\OC(=O)CCC1CCCCC1)c1cccc([N+](=O)[O-])c1	-1	9490	.	.	.	.	-15
O=C(N/N=C/c1ccncc1)c1ccc(NC(=O)c2cccc(Cl)c2)cc1	-6	4429	.	.	.	.	-19

Next section:
SMILES	BJeLR viability	Autofluor counter	Mtb hypoxia inh	Mtb hypoxia inh growth	Sa ugtP lethal	RN4220 kill	PrP UTR inh
O=C(NN1CCOCC1)c1cc(-c2ccccc2)nc2ccccc12	1	5688	13	14	3	4.8	-34
COc1cccc(CNc2ncnc3cc(OC)c(OC)cc23)c1	-3	2938	.	.	-2	0.9	-3
CC1(C)COC(/C=C/c2ccc([N+](=O)[O-])cc2)=N1	-2	2236	0	0	8	11	-19
COCCCNCC(O)COc1ccccc1F (stereo not drawn)	0	4704	-2	1	3	6.4	-17
CN(C)c1ccc(/C=N/NC(=O)c2ccco2)cc1	7	2145	.	.	.	.	-118
COc1ccc(S(=O)(=O)Nc2ccc3c(c2)OCCO3)cc1OC	22	3349	19	8	6	3.6	-9
COc1ccc(NC(=O)CN(Cc2ccco2)Cc2ccco2)cc1S(=O)(=O)N1CCCCC1	.	8530	3	4	0	-3.7	-23
COc1ccc(OCc2cc(C(=O)NCCN3CCCc4ccccc43)no2)c(Cl)c1	-4	6983	0	13	-16	-0.2	-7
Cc1cccc(N2C(=O)C3C4CC(C(Br)C4Br)C3C2=O)n1 (stereo not drawn)	6	4042	-1	-9	0	0.8	-25

Screening data from PubChem BioAssay.
